TAR Tat displ: TAR RNA-Tat peptide displacers, HIV-1, primary screen, biochemical, FRET, FAM/TAMRA-labeled Tat | HIV-1 TAR RNA, Tat peptide displacement FRET; hits give high values | AID 1259389, 2018 | actives 0.6% (n = 100,000) | z-score (test concentration not listed);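 further: score is relative to mean and SD of negative controls; some compounds called inactive have numbers as strong as hits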
CDC25B-CDK2 inh: primary biochemical HTRF screen for blockers of M-phase inducer phosphatase 2 binding to CDK2/cyclin A. HTRF CDC25B-CDK2/CyclinA binding, anti-His/anti-Flag; hits give high values. actives 0.72% (n = 94,000). z-score (test concentration not listed). P30305+P24941;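 further: score is relative to mean and SD of negative controls; strong numbers were not always called active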
* marks the source's active call; other numbers are inactive results; . = not tested or not shown.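 How the source made its calls: active means z-score from 3 up in half or more of its runs; inactive means the rest.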

Sequence of screens – TAR Tat displ, CDC25B-CDK2 inh
1) COc1cc(C2CC(=O)Nc3c2ccc2ccccc32)cc(OC)c1O (configuration not stated)
    ., -0.99
2) Brc1ccc2nc(-c3ccccn3)c(Nc3ccccc3)n2c1
    ., 0.1
3) O=C1C(=O)N(Cc2cccnc2)C(c2ccccc2F)/C1=C(\O)c1ccc(F)cc1 (configuration not stated)
    0.29, -0.89
4) COc1c(-c2coc3cc4c(cc3c2=O)CC(O)C(C)(C)O4)ccc2c1C=CC(C)(C)O2 (configuration not stated)
    0.54, .
5) Oc1c(Cl)cc(Cl)cc1C=Nc1ccc2n[nH]nc2c1
    ., -1.4
6) CCc1nn(C(C)C(=O)NCCCN2CCCC2=O)c(=O)c2cc3occc3n12 (configuration not stated)
    1.6, 1
7) NC(=O)Cn1c(=O)n(Cc2ccc(C(=O)NCc3ccco3)cc2)c(=O)c2sccc21
    -0.33, -0.96
8) O=C(Cn1cnc2nc3c(cc2c1=O)CCCC3)Nc1ccc(Br)cc1F
    -0.1, .
9) C=CCNc1nc2c(c(=O)[nH]c(=O)n2C)n1CCCCC
    0.59, -0.44
10) OC(CNCc1cccs1)c1ccccc1 (configuration not stated)
    ., 0.06
11) Cc1ccc(-c2nnc(Cc3ccc(F)cc3)o2)cc1
    0.42, 1.1
12) Cc1cc(-c2ccc(C)c(S(=O)(=O)N(C)C3CCCCC3)c2)on1
    0.49, .
13) O=C(Oc1cccc(C(F)(F)F)c1)c1cnn2c(C(F)(F)F)cc(C(F)(F)F)nc12
    ., -1.5
14) C=CCn1c(-c2ccccc2Cl)n[nH]c1=S
    ., -0.46
15) O=C1C(=O)N(Cc2cccnc2)C(c2ccccc2Cl)/C1=C(\O)c1ccccc1 (configuration not stated)
    0.02, -0.81
16) CCOC(=O)N1CCN(c2c(N3CCN(c4ccc(OC)cc4)CC3)c(=O)c2=O)CC1
    0.4, -1.9
17) CC(C)CN(CC(C)C)C(=O)C1CCCN(c2ncnc3c2nc2n3CCCCC2)C1 (configuration not stated)
    1.5, .
18) Cn1c(=O)c2sccc2n2c(CCCC(=O)N3CCN(c4ccccc4F)CC3)nnc12
    0.93, .
19) Cc1ccn2c(=O)c(Cc3nnc(SCC(=O)NC(C)(C)C)n3C)c(C)nc2c1
    0.86, 0.9
20) Cc1nc2scc(C)n2c(=O)c1S(=O)(=O)Nc1cccc(O)c1
    1.8, -1.4
21) COC(=O)CSc1nnc(-c2c[nH]c3ccccc23)n1-c1cc(OC)ccc1OC
    ., -0.39
22) O=C(Nc1cccc2cccnc12)C(=O)Nc1cccc2cccnc12
    ., -2
23) COc1ccc(F)cc1S(=O)(=O)Nc1cccc(N2CCCS2(=O)=O)c1
    0.78, .
24) COCCNC(=O)c1cnn2c(C(F)(F)F)cc(-c3ccc(Br)cc3)nc12
    4.3, .
25) O=C(Cn1c(=O)oc2cc(Cl)ccc21)N1CCN(C(=O)c2ccco2)CC1
    0.08, .
26) C/C(=N\O)c1ccc2c(c1)C(C)(C)CCC2(C)C
    ., -1.6
27) CNC(=O)CN1C(=O)c2cccnc2Sc2ccccc21
    0.1, .
28) COc1ccccc1C1c2c(-c3ccc(Cl)cc3)n[nH]c(=O)c2Nc2nnnn21 (configuration not stated)
    -0.01, -0.74
29) Cc1ccccc1-c1nc(SCc2ccccc2)n2[nH]c(=O)cc2n1
    0.13, .
30) Cc1cccc(C)c1Nc1c(-c2ccc(O)cc2)nc2ncccn12
    -2.1, -2.1
31) CN1CCN(S(=O)(=O)c2ccc3ccccc3c2)CC1
    0.82, -0.18
32) CC(=O)n1cc(-c2ccncc2)c2ccccc21
    ., -0.22
33) CCCC(=O)Nc1nnc(SCc2cc(=O)n3ccsc3n2)s1
    -0.11, .
34) CC1=CC(C)(C)N(C(=O)CSc2nc3ccccc3o2)c2ccccc21
    2.6, -0.87
35) Cc1ccc(NS(=O)(=O)c2c(C)nc3sc(C)cn3c2=O)cc1
    -0.53, .
36) Cc1ccc(N(C)S(=O)(=O)c2cn(C)cn2)cc1
    0.87, .
37) O=[N+]([O-])c1c(Sc2ccccc2)sc(Sc2ccccc2)c1[N+](=O)[O-]
    ., -1.7
38) COc1ccc(N2C(=O)CC(NCCc3c[nH]c4ccc(Cl)cc34)C2=O)cc1 (configuration not stated)
    0.64, -2
39) Cc1ccc2oc3nn(-c4ccc(Br)cc4)c(=O)c-3cc2c1
    -0.32, -1.1
40) COc1ccc(O)c(C2=NN3C(C2)c2cccc(OC)c2OC3c2ccc(O)cc2)c1 (configuration not stated)
    2.4, -0.9
41) Cn1c(C(=O)NCC2CCCO2)cc2sc(Cl)cc21 (configuration not stated)
    ., -2
42) Cc1ccc(C(=O)Nc2cnc3sc4cc(C)ccc4n3c2=O)cc1
    1.2, 0.32
43) CCCN(CCC)C(=O)Cn1c(C(=O)OC)cc2occc21
    -0.05, -1.3
44) O=C1c2cccnc2C(=O)N1Cc1ccc(S(=O)(=O)Nc2ccccc2F)s1
    0.64, .
45) N[C@@H](Cc1ccccc1)c1nnc(SCc2ccccc2)o1
    -1.6, 0.36
46) Cc1nc(Oc2ccc(F)cc2)c2oc3ccccc3c2n1
    -0.52, .
47) Clc1ccccc1-c1nnc(-c2ccccc2CNc2ccc3c(c2)OCO3)o1
    0.6, -1.2
48) CCCNC(=O)C1CCN(c2nn3c(=O)cc(CCC)nc3s2)CC1
    1, 0.29
49) Oc1cccc(Nc2nc(-c3cccs3)cs2)c1
    -7.1, -0.85
50) CCCC(NS(=O)(=O)c1cc(-c2cc(C)no2)ccc1C)c1cccs1 (configuration not stated)
    0.77, .
51) O=S1(=O)N(Cc2ccccc2Cl)CCCN1Cc1ccc(F)cc1Cl
    1.1, 0.06
52) COc1cc(C)c(C)cc1S(=O)(=O)N1CCc2cc3cc(C)ccc3nc21
    -1.3, -1
53) O=c1nc2c(-c3ccc(F)cc3Cl)n[nH]n2c2ccc(Cl)cc12
    2, -1.2
54) CCc1ccc(NS(=O)(=O)c2cc(Br)cnc2N)cc1
    0.7, 0.02
55) CCOCCCNC(=O)c1cnc2sc(N3CCCCC3)nn2c1=O
    0.71, .
56) CCOC(=O)CNC(=O)CSc1nc(C)nc2c1c(=O)n(C)c(=O)n2C
    ., -0.54
57) COc1cccc(-c2nc3ncccn3c2NCc2ccccc2OC)c1
    0.23, .
58) O=C(Nc1ccc(Br)cc1F)N1CCn2cccc2C1Cc1ccccc1 (configuration not stated)
    -1.9, .
59) CCOC(=O)c1c(NS(=O)(=O)c2ccc(OC)c(OC)c2)sc2c1CCCC2
    1.8, -0.11
60) O=C(Cn1c(=O)oc2ccccc21)N1CCCc2ccccc21
    1.6, .

(list continues)
Sequence of screens – TAR Tat displ, CDC25B-CDK2 inh
61) O=C1c2oc3ccc(Cl)cc3c(=O)c2C(c2ccncc2)N1CCCN1CCOCC1 (configuration not stated)
    -0.39, .
62) COc1cccc(C2C(C(=O)OCC3CCCO3)=C(C)NC3=C2C(=O)CC(C)(C)C3)c1OC (configuration not stated)
    2.7, -2
63) CC(C)(C)c1ccc(-c2noc(CNS(=O)(=O)c3ccc(Br)cc3)n2)cc1
    1.3, -0.25
64) Cc1ccc(Cn2c(C)c3cnn(CC(=O)NCC4CCCO4)c(=O)c3c2C)cc1 (configuration not stated)
    11, 0.19
65) COc1ccc(NC(=O)c2cc3c(s2)-c2ccccc2SC3)c(OC)c1
    0.4, 0.54
66) CCOC(=O)C1=C(C)N=C2SC=C(c3ccccc3)N2C1c1ccccc1 (configuration not stated)
    -5.3, .
67) c1ccc(-c2csc(Nc3ccccn3)n2)cc1
    ., 0.65
68) CSc1nnc(Sc2c([N+](=O)[O-])nc(C)n2Cc2ccccc2)s1
    1, -10
69) COc1ccccc1OCCSc1nc2ccccc2n1CC(=O)OC(C)C
    -0.49, 0.45
70) C=CCNc1nc(NCc2ccc(OC)cc2)c2cnn(C)c2n1
    1.4, .
71) COC(=O)CN1C(=O)CSc2ccc(S(=O)(=O)NCc3ccc4c(c3)OCO4)cc21
    -0.55, .
72) COC(=O)C(C)N1C(=O)NC2NC(=O)NC21 (configuration not stated)
    -0.12, -2.2
73) O=C(Cc1ccccc1)N(c1ccc2oc(=O)sc2c1)S(=O)(=O)c1cccs1
    1.2, -3.1
74) O=c1nc(/C=C/c2ccc(Br)cc2)oc2ccccc12
    ., -1.1
75) Cn1c2ccccc2c2c(C(=O)NCC3COc4ccccc4O3)cn(C3CCCC3)c(=O)c21 (configuration not stated)
    0.74, 1.8
76) O=S1(=O)CCC(N2COc3c(cc(Cl)c4cccnc34)C2)C1 (configuration not stated)
    0.82, 0.98
77) CCOC(=O)C1=C(C)NC2=C(C(=O)CCC2)C1c1ccc(OC)cc1OC (configuration not stated)
    0.75, 0.01
78) O=C(Nc1ccccc1Br)c1cc(-c2cccs2)nc2ccccc12
    ., -3.6
79) CCCCSc1nnc2c(n1)OC(c1cc(Br)c(Br)o1)Nc1ccccc1-2 (configuration not stated)
    ., -1.5
80) Cn1c(=O)oc2cc(S(=O)(=O)CCC(=O)Nc3ccc(Cl)cc3F)ccc21
    0.25, .
81) COC(=O)c1cnc(NNC(=O)C(Cl)Cl)nc1C(F)(F)F
    ., 0.6
82) C=CCOc1ccc(CNCCNC(=O)c2nonc2N)cc1
    1.6, -0.3
83) Oc1cccc2ccc(CNCc3cccc(Cl)c3)nc12
    -1.7, .
84) CCCCOC(=O)NC1CCS(=O)(=O)C1 (configuration not stated)
    0.01, -0.21
85) CSc1cccc(NS(=O)(=O)c2cc(-c3cnc(C)o3)ccc2C)c1
    0.84, .
86) O=C(NC1=C(C(F)(F)F)C(F)(F)C(F)(F)C1(F)F)SCC1Cc2ccccc2O1 (configuration not stated)
    ., -2
87) Cc1c(-c2nc(-c3ccc(Cl)cc3)no2)sc2nc[nH]c(=O)c12
    0.78, 0.39
88) O=C1Cc2cc(S(=O)(=O)N3CCCc4ccccc43)cc3c2N1CCC3
    2.1, .
89) CCSc1nc(=O)c2c(n1C)NC(=O)CC2c1ccc2c(c1)OCCO2 (configuration not stated)
    1.2, -1.3
90) O=[N+]([O-])c1ccc(OCS(=O)(=O)c2ccc(F)cc2F)c(Cl)c1
    ., 1

One compound at a time, as listed above. Order of values: TAR Tat displ	CDC25B-CDK2 inh
`Cn1c(=O)oc2cc(S(=O)(=O)CCC(=O)Nc3ccc(Cl)cc3F)ccc21` reads 0.25	.
`CCCCOC(=O)NC1CCS(=O)(=O)C1` (configuration not stated) reads 0.01	-0.21

Other structures.
Sequence of screens – TAR Tat displ, CDC25B-CDK2 inh
91) O=S(=O)(NCCO)c1cccc2cccnc12
    0.43, 0.5
92) Fc1ccccc1Nc1ncc2c(n1)CCN(Cc1cccc(Br)c1)C2
    1.1, .
93) COC(=O)c1c(C)noc1-c1ccno1
    ., -1.4
94) O=C(COc1ccccc1[N+](=O)[O-])Nc1ccc2oc(-c3cccc4ccccc34)nc2c1
    ., -2.3
95) Cc1cn2c3ccccc3n(CCN3CCOCC3)c2n1
    ., -0.42
96) CCOC(=O)c1c(NC(C)=O)sc2c1CCCC2
    1.7, -1.9
97) Cc1nc(-c2cccs2)c(CC(=O)N2CCN(c3ncccn3)CC2)s1
    -0.99, -2.2
98) Cc1cc(C)cc(S(=O)(=O)Nc2cccc(-c3ccc(N4CCOCC4)nn3)c2)c1
    0.59, .
99) CS(=O)(=O)CS(=O)(=O)Nc1cccc(OC(F)(F)F)c1
    ., -0.51
100) COc1ccc(C2C(C(=O)OC3CCCC3)=C(C)NC3=C2C(=O)CCC3)cc1 (configuration not stated)
    -0.41, -1.1
101) COc1ccc(Cc2nnc3sc(-c4ccc(OC)c(OC)c4)nn23)cc1
    -0.53, 0.95
102) c1ccc(-c2nc(NCCN3CCOCC3)c3ccccc3n2)cc1
    -2.2, 0.02
103) CCOC(=O)c1cccc(C(=O)OCC)n1
    1.1, -1.4
104) COc1cc(OC)c(-n2nnc(-c3nc(-c4ccc(C)cc4)no3)c2C)cc1Cl
    0.66, .
105) Cc1nnsc1C(=O)Nc1sc2c(c1C(=O)NCc1ccco1)CCC2
    1.6, 1.1
106) CCCCCCn1c(=O)c2c(nc(CN(CC)CC)n2C)n(C)c1=O
    0.03, -0.55
107) COc1ccc(C2COc3cc(O)ccc3C2)c(OC)c1O (configuration not stated)
    0.02, .
108) CC(=O)N1c2ccccc2C(=O)C1Sc1nc(C)cc(C)n1 (configuration not stated)
    1.2, 0.91
109) Nc1c(C(=O)Nc2cnc3ccccc3c2)sc2nc3c(cc12)CCC3
    ., -2.8
110) Cc1ccc(C(=O)CSc2nc(C)cc(C)c2C#N)cc1
    ., -0.78
111) Cc1nc2nc(C)c(CCC(=O)N3CCCC3)c(C)n2n1
    1.1, -0.87
112) Cc1ccc(-c2nnc(SCc3cc(=O)n4[nH]c(-c5ccccc5)nc4n3)n2C)cc1
    1.5, .
113) Cc1ccc(-c2cn3cccnc3n2)cc1NC(=O)C1CCCC1
    ., -0.91
114) CCCCc1nc2sc3c(NCCN(CC)CC)ncnc3c2c2c1COC(C)(C)C2
    -1.4, -2.2
115) Cc1ccc(-c2ccc(=O)n(CC(=O)OC(C)C)n2)cc1C
    0.45, -1.2
116) CS(=O)(=O)CCC(C(=O)Nc1ccc2c(c1)OCO2)N1Cc2ccccc2C1=O (configuration not stated)
    -0.16, .
117) O=C(Nc1ccc(S(=O)(=O)N2CCCCC2)cc1)c1noc2c1CSc1ccccc1-2
    0.61, -2.5
118) Cc1cc(CN2CCS(=O)(=O)CC2)no1
    ., -2.1
119) COc1ccc(-c2noc(-c3cn(Cc4ccc(N)cc4)cn3)n2)cc1OC
    3.5, -1.6
120) CCOc1ccc(N2C(=O)CC(Sc3nc(C)c(CC)c(C)c3C#N)C2=O)cc1 (configuration not stated)
    0.05, 1.6

Exported with one line to a screen: four of the compounds above.
93: COC(=O)c1c(C)noc1-c1ccno1
117: O=C(Nc1ccc(S(=O)(=O)N2CCCCC2)cc1)c1noc2c1CSc1ccccc1-2
113: Cc1ccc(-c2cn3cccnc3n2)cc1NC(=O)C1CCCC1
98: Cc1cc(C)cc(S(=O)(=O)Nc2cccc(-c3ccc(N4CCOCC4)nn3)c2)c1

| Compound | 93 | 117 | 113 | 98 |
| --- | --- | --- | --- | --- |
| TAR Tat displ | . | 0.61 | . | 0.59 |
| CDC25B-CDK2 inh | -1.4 | -2.5 | -0.91 | . |

Compound activity (PubChem)
